Screening results (PubChem BioAssay)
Ecoli rRNA inh – inhibits bacterial ribosomal RNA function over humanized ribosomes; E. coli WT GFP vs humanized-ribosome RFP mutants, fluorescence, 24 h; hits give low values; DMSO median 0, no signal -100; GFP signal change (wild-type ribosome), % (concentration not given with the values); actives 1.6% (n = 350,000); AID 720706;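 active = significant combined selectivity score with lowered wild-type GFP, culture density cut under 30%, mutant RFP and density less affected; inactive = any of these conditions unmet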; note: one replicate is shown; some compounds called inactive have numbers as strong as hits
MLL AF4-AF9 inh – MLL-AF4/AF9 protein interaction inhibition; P42568; AlphaScreen, biotin-AF4 peptide binding to FLAG-AF9; inhibition, % at 10 µM; actives 0.47% (n = 350,000);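 active = every replicate reaching a set inhibition limit, whatever the replicate mean, cut at about 25% in these data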;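 note: 0% = plate neutral control median and 100% = total signal loss; the record names both 10 and 1 µM as test concentration; the first replicate is given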
Target sequence (P42568 whole entry, looked up): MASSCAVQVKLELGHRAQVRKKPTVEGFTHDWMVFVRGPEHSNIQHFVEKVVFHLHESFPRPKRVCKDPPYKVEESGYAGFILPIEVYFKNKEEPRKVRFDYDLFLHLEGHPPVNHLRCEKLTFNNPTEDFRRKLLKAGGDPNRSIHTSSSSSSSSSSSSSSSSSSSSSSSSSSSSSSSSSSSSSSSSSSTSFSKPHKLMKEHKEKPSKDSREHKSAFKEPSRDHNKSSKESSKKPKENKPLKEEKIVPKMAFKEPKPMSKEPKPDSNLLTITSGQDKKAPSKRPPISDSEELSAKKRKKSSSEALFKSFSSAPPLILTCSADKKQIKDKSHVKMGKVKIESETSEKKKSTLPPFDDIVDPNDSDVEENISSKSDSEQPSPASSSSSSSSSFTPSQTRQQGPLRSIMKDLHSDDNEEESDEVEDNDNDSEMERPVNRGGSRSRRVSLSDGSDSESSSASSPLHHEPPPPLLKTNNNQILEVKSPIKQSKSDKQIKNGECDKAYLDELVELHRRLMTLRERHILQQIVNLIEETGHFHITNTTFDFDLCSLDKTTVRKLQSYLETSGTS
Ecoli rRNA inh OD600 – further read-out of Ecoli rRNA inh, marked with its call; OD600 change, %; measured here: OD600 growth;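 optical density of the mix in the first replicate; 0 = DMSO median and -100 = no signal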
Ecoli rRNA inh RFP – second read-out of Ecoli rRNA inh, no call of its own (marks repeat the call); RFP signal change, %; measured here: RFP humanized mutant strains;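 first replicate; 0 = DMSO median and -100 = no signal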
Active calls of the source: *; & = joins results of further samples. Only part of the results is shown (hit frequency here may not be typical).

SMILES | Ecoli rRNA inh | Ecoli rRNA inh OD600 | Ecoli rRNA inh RFP | MLL AF4-AF9 inh
CCc1nc(N2[C@H](C#N)[C@H](c3ccccc3-c3ccccc3F)[C@@H]2CO)sc1C | 0 | 16 | -0.2 | -1.4
Cc1ccc(S(=O)(=O)Nc2ccc3c(c2)C(=O)N([C@H](C)CO)C[C@H](C)[C@H](CN(C)S(=O)(=O)c2ccccc2)OCCCC[C@@H](C)O3)cc1 | 3 | -3 | -0.3 | -3.6
C/C=C/c1ccc(C2[C@H]3CNC[C@@H]2N3Cc2ccc(OC)cc2)cc1 (some centres undefined) | -1 | 9 | 1.4 | 9.2
COc1ccc(-c2ccc3n(c2=O)C[C@H]2[C@H](CO)[C@@H](C(=O)NCCN4CCCC4)N(C)[C@@H]32)cc1 | -2 | 14 | -1.7 | 3.4
CC(C)NC(=O)N1C[C@H]2[C@@H](c3ccccc31)[C@@H](CO)N2C(=O)NC(C)C | 1 | -3 | -3.1 | 0.0
COc1ccc2c3c(n(C)c2c1)[C@H](CO)N(Cc1ccccc1Cl)CC31CN(C(=O)CN(C)C)C1 | 4 | 9 | -1.0 | 2.9
COc1cccc(NC(=O)N[C@@H]2C=C[C@H](CC(=O)N3CCCCC3)O[C@@H]2CO)c1 | 1 | -2 | -2.5 | -5.7
COc1ccc2c3c(n(C)c2c1)[C@@H](CO)NCC31CCN(C(=O)Nc2ccc(F)cc2F)CC1 | 2 | 6 | 1.4 | 15
O=C(Nc1ccc(F)cc1)N1C[C@@H]2[C@H](c3ccccc31)[C@@H](CO)N2C(=O)c1cccnc1 | 2 | 14 | 1.3 | -0.3
CCCC(=O)Nc1ccc2c(c1)C(=O)N(C)[C@@H]1CC[C@@H](CC(=O)NCCc3ccccc3)O[C@H]1CO2 | 2 | 0 | -0.5 | -1.6
O=C(Nc1ccccc1)N1CC(=O)N2[C@H](CO)[C@@H](c3ccc(C#CC4CCCC4)cc3)[C@H]2C1 | -8 | -35 | 3.5 | 4.8
O=C(CC1CC1)N1CC(=O)N2[C@H](CO)[C@H](c3ccc(C#Cc4cccc(F)c4)cc3)[C@@H]2C1 | -40 | -71 | -4.7 | -5.0
C[C@H](CO)N1C[C@H](C)[C@@H](CN(C)C(=O)NC2CCCCC2)Oc2ccc(NC(=O)Cc3cn(C)c4ccccc34)cc2C1=O | -1 | -8 | -1.4 | -4.4
COc1ccc(NC(=O)N2CC(=O)N3[C@@H](CO)[C@@H](c4ccc(Br)cc4)[C@@H]3C2)cc1 | -1 | 9 | 2.8 | -0.7
Cc1ccc(S(=O)(=O)N(C)C[C@H]2OCCCC[C@@H](C)Oc3ccc(NC(=O)Cc4ccccc4)cc3C(=O)N([C@@H](C)CO)C[C@H]2C)cc1 | -1 | 6 | -0.8 | 2.4

Next part:
SMILES | Ecoli rRNA inh | Ecoli rRNA inh OD600 | Ecoli rRNA inh RFP | MLL AF4-AF9 inh
COc1ccc(-c2ccc([C@@H]3[C@@H](CO)N4C(=O)CN(C(=O)c5ccc6c(c5)OCO6)C[C@H]34)cc2)cc1 | 2 | -4 | 9.9 | 2.0
Cc1noc(C)c1NC(=O)N(C)C[C@H]1OCCCC[C@H](C)Oc2ccc(NC(=O)c3ccccc3)cc2C(=O)N([C@H](C)CO)C[C@@H]1C | -1 | 1 | -2.2 | 0.0
O=C(C[C@@H]1C=C[C@@H](NC(=O)Cc2ccccn2)[C@@H](CO)O1)NCCc1ccccc1 | 1 | -4 | 0.6 | -3.6
CC(C)NC(=O)N[C@@H]1CC[C@H](CCNC(=O)C2CCCC2)O[C@@H]1CO | 2 | 1 | -1.1 | 0.1
O=C(c1ccncc1)N1CC(=O)N2[C@H](C1)[C@@H](c1ccc(-c3ccccc3)cc1)[C@@H]2CO | 3 | 8 | 0.5 | -1.4
CN1c2ccc(-c3ccccc3)cc2[C@H]2[C@H](CCN2C(=O)NC2CCCC2)[C@@H]1CO | -25 | -56 | 12 | 0.7
COc1ccc(C(CNC(=O)c2ccc(OCc3csc(C)n3)cc2)N2CCCC2)cc1 (centres undefined) | 0 | 7 | -1.8 | 2.2
COc1ccc(S(=O)(=O)N[C@@H]2CC[C@@H](CC(=O)NCCc3ccccc3)O[C@H]2CO)cc1 | 2 | 6 | -2.5 | -0.5
O=C(c1ccccn1)N1CC(=O)N2[C@H](C1)[C@@H](c1ccc(-c3cccc(F)c3)cc1)[C@@H]2CO | 3 | 14 | 1.6 | -6.4
O=C(c1cnccn1)N1CC(=O)N2[C@H](C1)[C@H](c1ccc(-c3ccccc3)cc1)[C@@H]2CO | -3 | -4 | -5.8 | 13
CCC(=O)N1CC2(CCN(C(=O)Nc3ccc(F)cc3)CC2)c2c([nH]c3cc(OC)ccc23)[C@@H]1CO | -8 | 0 | 0.8 | 2.2
Nc1[nH]c(C(=O)c2ccccc2)c(-c2cccc3ccccc23)c1C(=O)NCc1ccc(F)c(F)c1 | 2 | 0 | 8.8 | -1.3
O=C(C[C@H]1C=C[C@H](NC(=O)Cc2cccnc2)[C@H](CO)O1)Nc1ccc(-c2ccccc2)cc1 | -9 | -4 | -0.2 | -3.0
N#Cc1cccc(-c2ccc(C3[C@H]4CNC[C@@H]3N4S(=O)(=O)c3ccc(F)cc3)cc2)c1 (some centres undefined) | -29&-5 | -44&2 | 1.0&-5.1 | -2.4&-3.7
C[C@@H]1CN([C@@H](C)CO)C(=O)c2cc(NS(=O)(=O)c3ccc(Cl)cc3)ccc2O[C@@H](C)CCCCO[C@H]1CN(C)Cc1ccc2c(c1)OCO2 | -15 | -52 | 32 | 5.8

Next part
SMILES | Ecoli rRNA inh | Ecoli rRNA inh OD600 | Ecoli rRNA inh RFP | MLL AF4-AF9 inh
COCC#Cc1ccc([C@H]2[C@H](CO)N3C(=O)CN(C(=O)Nc4ccc(F)cc4)C[C@@H]23)cc1 | 2 | 17 | -1.9 | -3.9
O=C(C[C@@H]1CC[C@@H]2[C@H](COC[C@@H](O)CN2S(=O)(=O)c2ccc(F)cc2)O1)N[C@H]1CCN(Cc2ccccc2)C1 | 3 | 4 | 0.4 | 0.4
Cc1ccc(S(=O)(=O)Nc2ccc3c(c2)C(=O)N([C@H](C)CO)C[C@@H](C)[C@@H](CN(C)Cc2ccc(C(=O)O)cc2)OCCCC[C@@H](C)O3)cc1 | 0 | 5 | -2.8 | 0.6
CN1CCN(C(=O)C[C@H]2CC[C@H]3[C@H](COc4ccc(NC(=O)C5CCC5)cc4C(=O)N3C)O2)CC1 | 2 | 5 | -0.6 | -2.5
CC=Cc1ccc2n(c1=O)C[C@@H]1[C@@H](CO)[C@H](C(=O)NCC)N(CC3CCOCC3)[C@H]21 (mixture of isomers) | 0 | 0 | 0.6 | 0.4
COc1ccc(NC(=O)N2CC(=O)N3[C@H](C2)[C@@H](c2ccc(-c4ccc(C)cc4)cc2)[C@@H]3CO)cc1 | -7 | -43 | 36 | 3.8
COc1ccc(NC(=O)N2CC(=O)N3[C@@H](CO)[C@@H](c4ccc(C5=CCCC5)cc4)[C@@H]3C2)cc1 | -8 | -10 | 22 | 3.1
Cc1noc(C)c1NC(=O)Nc1ccc2c(c1)C(=O)N([C@H](C)CO)C[C@@H](C)[C@H](CN(C)S(=O)(=O)c1ccccc1)OCCCC[C@H](C)O2 | -3 | 2 | -3.1 | 0.6
C[C@@H]1CN([C@@H](C)CO)C(=O)c2cc(N(C)C)ccc2O[C@H]1CN(C)Cc1ccncc1 | 0 | 8 | -0.8 | 4.3
C[C@H]1CN([C@@H](C)CO)C(=O)c2cc(-c3ccc(C#N)cc3)cnc2O[C@@H]1CN(C)C(=O)c1ccccc1 | -4 | 1 | 1.3 | -1.5
CN(C)CC#Cc1ccc([C@@H]2[C@H](CO)N3C(=O)CN(C(=O)c4ccccc4)C[C@@H]23)cc1 | 7 | 4 | -1.4 | 3.4
Cc1ccc(S(=O)(=O)N2C[C@@H]3N[C@H](C2)C3c2ccc(-c3ccncc3)cc2)cc1 (some centres undefined) | 7&-4 | -6&-7 | 2.0&16 | -3.2&-5.0
COc1ccc2c3c(n(C)c2c1)[C@H](CO)N(C(=O)Nc1ccc(F)cc1)CC31CN(S(=O)(=O)c2cccc(F)c2)C1 | 0 | 4 | 0.9 | -1.6
Cc1ccccc1S(=O)(=O)N1[C@@H]2CNC[C@H]1C2c1ccc(/C=C/c2ccccc2)cc1 (some centres undefined) | 1&-58 | -30&-80 | -0.9&-9.6 | 1.0&5.8
COc1cc(CN2CC3(CCN(S(=O)(=O)c4cn(C)cn4)CC3)c3c(n(C)c4cc(OC)ccc34)[C@@H]2CO)cc(OC)c1 | 6 | 2 | 1.6 | 1.3

Later entries:
SMILES | Ecoli rRNA inh | Ecoli rRNA inh OD600 | Ecoli rRNA inh RFP | MLL AF4-AF9 inh
O=C(Nc1ccc2c(c1)OCO2)N1[C@@H]2CNC[C@H]1C2c1ccc(/C=C/c2ccccc2)cc1 (some centres undefined) | -60 | -72 | -13 | 10
CCCC(=O)N1CCC2(CC1)CN(Cc1ccc(Cl)cc1)[C@@H](CO)c1[nH]c3cc(OC)ccc3c12 | 2 | 6 | 7.6 | -9.4
C/C=C/c1ccc2c(c1)O[C@@H](CN(C)C(=O)Nc1ccc(F)cc1)[C@@H](C)CN([C@H](C)CO)S2(=O)=O | -7 | 1 | 0.2 | 2.5
C[C@H]1CCCCO[C@H](CN(C)S(=O)(=O)c2ccc(F)cc2)[C@@H](C)CN([C@@H](C)CO)C(=O)c2cc(NS(=O)(=O)c3ccc(Cl)cc3)ccc2O1 | 2 | 3 | 1.3 | 1.2
C[C@H]1CN([C@@H](C)CO)C(=O)c2cccc(NS(C)(=O)=O)c2O[C@@H]1CN(C)C(=O)Nc1cccc2ccccc12 | -2 | -7 | 1.2 | -0.1
COc1ccc2c3c(n(C)c2c1)[C@@H](CO)N(CC1CCOCC1)CC31CN(C(C)=O)C1 | 6 | 17 | -0.1 | -3.9
CC(=O)N1[C@H](CO)[C@H](c2ccccc2)C12CN(S(=O)(=O)c1ccccc1)C2 | 1 | 10 | 2.4 | -4.6
CCCC#Cc1ccc([C@H]2[C@H]3CN(C(=O)CN4CCOCC4)CC(=O)N3[C@H]2CO)cc1 | 3 | 7 | -4.5 | -9.1
CC(=O)N1CC(=O)N2[C@H](CO)[C@H](c3ccc(-c4ccc(C#N)cc4)cc3)[C@H]2C1 | 2 | 7 | -1.3 | -3.6
COc1cccc(CN2C[C@@H]3N[C@H](C2)C3c2ccc(-c3ccccc3OC)cc2)c1 (some centres undefined) | -59&-59 | -75&-76 | -16&-15 | 13&7.5
COc1cccc(C#Cc2ccc([C@H]3[C@@H](C#N)N(C(=O)C4CCCC4)[C@@H]3CO)cc2)c1 | -16 | -52 | 22 | -1.6
COc1ccc(-c2ccc(C3[C@H]4CNC[C@@H]3N4S(=O)(=O)c3cccc(C)c3)cc2)cc1 (some centres undefined) | -59&-5 | -78&-38 | -8.9&25 | -2.2&-4.3
O=C(C[C@H]1C[C@@H]2c3cc(NC(=O)c4cccnc4)ccc3O[C@@H]2[C@@H](CO)O1)NC1CCCC1 | 0 | -4 | -0.4 | -4.4
COc1cccc(C#Cc2ccc([C@H]3[C@H](CO)N4C(=O)CN(C(=O)Cc5ccccc5)C[C@@H]34)cc2)c1 | 0 | -39 | 27 | -1.1
COc1cccc(-c2ccc([C@@H]3[C@H](CO)N4C(=O)CN(C(=O)CN5CCOCC5)C[C@@H]34)cc2)c1 | 2 | -8 | -1.2 | -1.1

Some of the entries so far, field by field.
Molecule: CC(=O)N1CC(=O)N2[C@H](CO)[C@H](c3ccc(-c4ccc(C#N)cc4)cc3)[C@H]2C1
  Ecoli rRNA inh: 2; Ecoli rRNA inh OD600: 7; Ecoli rRNA inh RFP: -1.3; MLL AF4-AF9 inh: -3.6
Molecule: CC(=O)N1[C@H](CO)[C@H](c2ccccc2)C12CN(S(=O)(=O)c1ccccc1)C2
  Ecoli rRNA inh: 1; Ecoli rRNA inh OD600: 10; Ecoli rRNA inh RFP: 2.4; MLL AF4-AF9 inh: -4.6
Molecule: COc1cccc(C#Cc2ccc([C@H]3[C@H](CO)N4C(=O)CN(C(=O)Cc5ccccc5)C[C@@H]34)cc2)c1
  Ecoli rRNA inh: 0; Ecoli rRNA inh OD600: -39; Ecoli rRNA inh RFP: 27; MLL AF4-AF9 inh: -1.1
Molecule: CCCC#Cc1ccc([C@H]2[C@H]3CN(C(=O)CN4CCOCC4)CC(=O)N3[C@H]2CO)cc1
  Ecoli rRNA inh: 3; Ecoli rRNA inh OD600: 7; Ecoli rRNA inh RFP: -4.5; MLL AF4-AF9 inh: -9.1

(listing goes on)
SMILES | Ecoli rRNA inh | Ecoli rRNA inh OD600 | Ecoli rRNA inh RFP | MLL AF4-AF9 inh
O=C(c1cccc(F)c1)N1CC[C@@H]2[C@H]1c1cc(-c3ccccc3F)ccc1N[C@@H]2CO | -4 | -15 | 17 | 0.2
CN(C)C(=O)C[C@@H]1C=C[C@H](NC(=O)C2CCC2)[C@H](CO)O1 | 7 | 5 | 0.9 | -0.1
CN1[C@@H]2c3ccc(C4=CCCC4)c(=O)n3C[C@H]1[C@H](CO)[C@H]2C(=O)NCc1cc(F)cc(F)c1 | 0 | 0 | 1.5 | 4.6
COCC(=O)N1CC2(C1)CN(Cc1nccs1)[C@@H](CO)c1c2c2ccc(OC)cc2n1C | 4 | 12 | -3.7 | -11
O=C1CN(Cc2ccc(F)cc2)C[C@@H]2[C@@H](c3ccc(Br)cc3)[C@H](CO)N12 | -4 | -12 | -5.6 | -5.7
